Screening data: PubChem, National Center for Advancing Translational Sciences (NCATS)
StopGo RLuc = lowers the Renilla signal of an FMDV 2A StopGo reporter. HEK cells with a luciferase reporter of 2A StopGo recoding. Potency, µM (doses to about 57.5 µM), without a hit: at the top dose signal change, negative = less light. 120,000 compounds, 0.32% hits; active means well fitted falling curve with a large enough effect; inconclusive means small, poorly fitted or top-dose-only effect; inactive means no such curve, though single readings can be large or run the other way; further: nearly all actives have a fitted effect of over 55% in size; overnight with compound
StopGo FLuc = lowers the firefly signal of an FMDV 2A StopGo reporter. Potency, µM (series often up to 57.5 µM), without a hit: at the top dose signal change, negative = less light. 120,000 compounds, 0.23% hits. HEK cells with a luciferase reporter of 2A StopGo recoding; active = well fitted falling curve with a large enough effect; inconclusive = small, poorly fitted or top-dose-only effect; inactive = no such curve, though single readings can be large or run the other way; further: nearly all actives have a fitted effect of over 60% in size; overnight with compound
* = called active by the depositor; ? = inconclusive; [ ] = another dose, or the depositor's remark. On the % scale 0 is the no-effect control and ±100 the full control effect; potency means the concentration at half of the fitted maximal effect. A portion of the library. The share of hits here may be higher or lower than overall.

SMILES | StopGo RLuc | StopGo FLuc
CCn1nc(C(=O)OC(C)C(=O)NCc2ccco2)c2ccccc2c1=O (stereo not given) | -17% | -16%
FC(F)(F)c1ccnc(Sc2ccc(Cl)cc2)n1 | 0% | 6%
CCCC(C)(C)NC(=O)Cc1cc(OC)c(OC)c(OC)c1 | 10% | 8%
CC(=O)c1ccc(NC(=O)CSc2nc3c(=O)n(C)c(=O)n(C)c3n2C)cc1 | -8% | -6%
Cc1ccc(/C=C/C(=O)c2cc3ccccc3o2)s1 | 94%[activator] | 94%[activator]
Cc1ccc(-n2nnc(-c3nsc(NC(=O)c4cccc(Cl)c4)n3)c2C)cc1C | -2% | 0%
COC(=O)c1ccccc1NC(=O)Cc1nc(-c2ccc(OC)cc2)no1 | -21% | -16%
COc1cccc(C2=NS(=O)(=O)N(C)C(C(=O)NC3CCCC3)=C2)c1 | 25% | -8%
O=C(Nc1ccc2cc[nH]c2c1)c1csc(NC2CC2)n1 | -12% | 79%[activator]
CC1CCN(S(=O)(=O)c2ccc3c(c2)N(CC(=O)NCC(C)c2ccccc2)C(=O)CO3)CC1 (stereo not given) | 61%[activator] | 4%
Cc1ccccc1C(=O)NCC(c1ccccc1)c1c[nH]c2ccccc12 (stereo not given) | 6% | -19%
CCCNc1c(NS(=O)(=O)c2ccc(OC)cc2)c(=O)oc2ccccc12 | 30% | 12%
Cc1oc(-c2nc(C#N)c(N3CCCCC3)o2)cc1S(=O)(=O)N(C)C | 10% | -6%
CCOC(=O)c1[nH]c(C)c(CCC(=O)Nc2cc(C)c(Cl)cc2OC)c1C | 45%[activator] | 0%
COc1cc(S(=O)(=O)N2CCN(CCO)CC2)ccc1Br | -15% | -11%
CCN(CC)CCNC(=O)c1cn(CCOC)c(=O)c2c1c1ccccc1n2C | -15% | 0%
O=C(O)c1cc(I)cc(I)c1 | 6% | 14%
O=C(NCCc1ccccc1)c1cc(Cl)ccn1 | 17% | 0%
CC1CCCN(c2nc3ccccc3nc2NS(=O)(=O)c2ccc(Cl)cc2)C1 (stereo not given) | 25% | 10%
CCCCCCCc1ccc(-c2ccc(O)cc2)nc1 | -11%[1.06 µM] | 91%[activator]
CCC(=O)Nc1cc(-c2nc3ccccc3o2)ccc1Cl | -6% | 74%[activator]
CC(OC(=O)c1ccc2noc(-c3ccccc3)c2c1)C(=O)N(C)C (stereo not given) | -9%[1.06 µM] | 0%
CN1C(=O)C(C)(C)c2cc(S(=O)(=O)N3CCCC3C(=O)Nc3ccc(F)cc3)ccc21 (stereo not given) | ? | ?
COC(=O)C1CCN(Cc2cc(=O)oc3ccc(O)cc23)CC1 | 12% | 29%
O=C(Nc1ccccc1I)C1CCCC1 | 17% | 12%
CCN(CCc1ccncc1)S(=O)(=O)c1cc(N2CCCCS2(=O)=O)ccc1OC | 105%[activator] | 7%
Cc1ccc(CCC(=O)Nc2ccc(C)c(C)c2)s1 | -7% | 24%
CCOC(=O)c1ccc(NS(=O)(=O)c2ccc3[nH]c4c(c3c2)CCCCC4)cc1 | 312%[activator] | 20%
O=C(c1cc(F)cc(F)c1)N1CCC(CN2CCOCC2)CC1 | -10% | -7%
CC(=O)c1ccc2c(c1)N(CCCN1CCC(CCO)CC1)c1ccccc1S2 | -2% | -18%
COc1c(CNCC(O)COc2cccc(C)c2)c(C)nn1C (stereo not given) | 5% | 2%
O=c1oc2ccccc2cc1-c1nnc(Nc2ccccc2)s1 | 9% | 224%[activator]
CCOc1ccccc1CNC(=O)c1cc2cc(S(=O)(=O)N3CCCCC3)ccc2n1C | -2% | -8%
CC(C)C[C@H](NC(=O)c1ccc2nc(-n3cccc3)sc2c1)C(=O)NCc1cccnc1 | ? | ?
COc1ccc2cc(S(=O)(=O)N3CCCC3)ccc2c1 | ? | ?
NS(=O)(=O)c1cc2c(cc1Cl)NC(CC1CCCC1)NS2(=O)=O (stereo not given) | 10% | 8%[11.5 µM]
O=C(Cn1nc(Cl)nc1Cl)c1ccccc1 | -1% | 2%
CCCc1cc(=O)[nH]c2nnc(SC(C)CC)n12 (stereo not given) | 20% | -6%
CC(C)c1ccccc1NC(=S)NCCc1ccc(Cl)cc1 | 100%[activator] | -18%
O=C(NCc1ccccc1Cl)c1ccc(-n2cnc3cccnc32)cc1 | 20% | 35%[activator]
Cc1c(C=O)c(C)n(C(C)C)c1C | 17% | 17%
CCCCc1cc(=O)oc2cc(OCC(=O)N3CCC(C(=O)NCCCO)CC3)ccc12 | -9% | -3%
CCCCNC(=O)CCSc1nc(-c2ccc3c(c2)OCO3)cc(C(F)(F)F)n1 | -8% | -10%
O=C(CSc1c2c(nc3ccccc13)CCC2)Nc1ccc(F)cc1 | 43%[activator] | 2%
CCOC1OC(=O)C(Cl)=C1Nc1ccc(C)cc1 (stereo not given) | 20% | 0%
CC(NS(=O)(=O)c1ccc2c(c1)CCN2C(=O)N1CCCC1)C(=O)Nc1ccccc1 (stereo not given) | 10% | -2%
O=C(Cc1c[nH]c2ccccc12)Nc1nc2ccc(F)cc2s1 | -1% | 165%[activator]
CCN(CC)c1cc(C)c2cc(NC(=O)/C=C/c3ccc(C)cc3)ccc2n1 | -3% | 0%
Cc1cc(-c2ccc(C)c(S(=O)(=O)NCc3ccc(Cl)cc3)c2)on1 | 221%[activator] | -20%
CC(C)c1ccc2oc(=O)cc(CN3CCN(Cc4ccccc4)CC3)c2c1 | -10% | -6%

3 compounds out of the list, ordered by molar mass, rising:
SMILES | StopGo RLuc | StopGo FLuc
O=C(c1cc(F)cc(F)c1)N1CCC(CN2CCOCC2)CC1 | -10% | -7%
Cc1ccccc1C(=O)NCC(c1ccccc1)c1c[nH]c2ccccc12 (stereo not given) | 6% | -19%
O=C(NCc1ccccc1Cl)c1ccc(-n2cnc3cccnc32)cc1 | 20% | 35%[activator]

(cont.)
SMILES | StopGo RLuc | StopGo FLuc
COc1ccc(/C=C(\NC(=O)c2ccccc2)C(=O)NC2CCCCC2)cc1 | 147%[activator] | 2%
Cc1c(CC(=O)NCc2ccc(Cl)cc2)c(=O)oc2c(C)c(O)ccc12 | 16% | 22%
CCOc1cccc(NC(=O)c2ccc(C)cc2)c1 | 16% | 104%[activator]
COc1ccc(-c2c(NC(=O)c3cccs3)n(C)c3ccccc3c2=O)cc1OC | 6% | 0%
COc1ccc(Cl)cc1NC(=O)N1CCC2(CC1)N=C(c1ccc(C(C)(C)C)cc1)C(=O)N2 | -7% | -3%
Cc1ccc(-c2cc(C(=O)OCC(=O)N3CCOCC3)c3ccccc3n2)cc1 | 36%[activator] | 183%[activator]
CCCCC(=O)NC1CC(=O)N(c2ccc3c(c2)OCCO3)C1 (stereo not given) | -9% | -2%
CCCOc1c(Cl)cc(C(=O)NC(C)(C)C)cc1OCC | -5% | -20%
CCCCn1c(COc2cccc(OC)c2)nc2ccccc21 | 4% | 33%[activator]
CCOc1ccccc1NC(=O)c1cc2cc3cc(C)ccc3nc2s1 | -12% | -1%
N#Cc1nc(-c2ccccc2)oc1N1CCN(C(=O)c2ccco2)CC1 | -3% | 16%
COc1ccccc1-c1c(C)nn2c(NC3CCCC3)cc(C)nc12 | ? | ?
CC(Oc1ccc2c(-c3ccccc3)cc(=O)oc2c1)C(=O)NC1CC(C)(C)NC(C)(C)C1 (stereo not given) | -18% | -17%
COc1ccc(CNC(=O)CN(c2ccc(C)cc2)S(=O)(=O)c2c(C)noc2C)cc1 | 1% | -8%
CC1CCC2(CC1)NC(=O)N(NC(=O)CSc1nc(C(F)(F)F)nc3ccccc13)C2=O (stereo not given) | -14% | -10%
CSc1ccc(N/C=C/C(=O)c2ccc(C)c(C)c2)cc1 | 11% | 0%
Cc1cccc(N2CCN(C(=O)c3c(C)oc4ncnc(N5CCCCC5)c34)CC2)c1C | -8% | -13%
COC(=O)c1ccc(C(=O)N(C)Cc2ccsc2)s1 | 6% | 27%
CC1(C)CC(CC(=O)N2CCCC2)(c2ccc(Cl)cc2)CCO1 (stereo not given) | 5% | -1%
Cc1ccc(CN(C)C(C)c2ccc(S(C)(=O)=O)cc2)cc1 (stereo not given) | 2% | -7%
CCOc1cc(CNC(=O)c2cccc(NC(=O)c3nnc(C)s3)c2)cc(OCC)c1OCC | 16% | 4%
Cc1ccc(NC(=O)Cn2c3ncccc3c(=O)n2-c2ccc(C)c(C)c2)cc1 | -2% | 60%[activator]
O=C(c1c[nH]c2ccccc12)N1CCN(C(=O)C2CC2)CC1 | -19% | 1%
N#Cc1nc(COc2ccc(F)cc2)oc1NCCc1ccccc1 | 6% | 62%[activator]
CC(C)CN(CC(=O)NC(=O)NC(C)(C)C)C1CC1 | 10% | 5%
Cc1ccc(NS(=O)(=O)c2ccc3nc(-c4ccccc4)[nH]c3c2)c(Br)c1 | 100%[activator] | 18%
COC(=O)C1=C(N)OC2=C(C(=O)CC(C)(C)C2)C1c1ccc(Cl)cc1 (stereo not given) | 2% | -7%
COc1ccc(-c2cc(-c3ccccc3)nc3c2COc2ccc(F)cc2-3)cc1 | -5% | -1%
COc1cc(C2CC(=O)N3CN(c4cccc(C)c4)CSC3=C2C#N)ccc1O (stereo not given) | -7% | 39%[activator]
O=C(Cc1cccc2cccnc12)NC1CCS(=O)(=O)C1 (stereo not given) | -12% | 2%
COC(=O)c1ccc(CNC(=O)Cn2c(Cl)nc3c2c(=O)n(C)c(=O)n3C)cc1 | 2% | 20%
CCCCCSc1nc2sc3c(c2c(=O)n1-c1ccc(OC)cc1)CCN(C(C)=O)C3 | -11% | -1%
Cc1ccc(NC(=O)Cn2c(=O)n(CCC(=O)N3CCc4ccccc4C3)c(=O)c3ccccc32)cc1 | -9% | -9%
COc1ccc(-c2nc3c(C#N)c[nH]n3c2NC2CCCCC2)cc1 | 4% | 82%[activator]
Cc1ccc(CSc2nc3cccnc3n2Cc2ccc(C(=O)NCCc3ccccc3)cc2)cc1 | ? | 21%
CCCCCCOc1ccc(C=O)cc1 | -4% | 19%
O=S(=O)(Nc1nc2ccccc2nc1NCc1ccccc1)c1cccs1 | 68%[activator] | 5%
COC(=O)c1[nH]c(C)c(/C(O)=C2\C(=O)C(=O)N(CCCn3ccnc3)C2c2ccncc2)c1C (stereo not given) | -5% | -8%
CCOc1cc(C#N)c(NC(=O)c2ccc(Cl)cc2)cc1OCC | -6% | -9%
COc1ccc(CCNc2nc(SCc3cccc(Cl)c3)nc3ccccc23)cc1OC | -6% | -20%
NC(=O)CN(CC(=O)NC1CCC(C(F)(F)F)CC1)C1CCCC1 (stereo not given) | 2% | 0%
COc1ccc(N(Cc2cccs2)C(=O)Cn2cnc3ccc(Cl)cc3c2=O)cc1 | 2% | -12%
Cc1ccc(C(OCC(C)(C)C[N+](C)(C)C)c2ccccc2)cc1 (stereo not given) | -16% | 14%
CCOc1c(CNCCSc2nnnn2C)cccc1OC | -10% | -20%
Cc1nn(C(C)C(=O)NCc2cccc(F)c2)c(=O)c2c1sc1ccccc12 (stereo not given) | 24% | -14%
COC(=O)c1c(C)oc2ccc(N(C(=O)Oc3ccccc3)S(=O)(=O)c3ccc(C(C)(C)C)cc3)cc12 | -28% | -25%
CC(=O)N1c2ccc(S(=O)(=O)NCCc3cccc(C)c3)cc2CC1C (stereo not given) | -11% | ?
COc1cc(C(=O)Nc2ccc3oc(-c4ccc(F)cc4)cc(=O)c3c2)cc(OC)c1OC | 4% | 6%
O=C(CN1CCN(c2cccc(Cl)c2)CC1)Nc1ccnn1Cc1cccc(Cl)c1 | 40%[activator] | -3%
Cc1cc(NC(=O)CN2CCN(C(=O)c3cc(Cl)ccc3F)CC2)no1 | 35%[activator] | 72%[activator]

Going on with the list:
SMILES | StopGo RLuc | StopGo FLuc
O=C(Nc1ccc(Cl)cc1)c1ccc2ccccc2n1 | 2% | 64%[activator]
COCCNC(=O)CCSc1nc(-c2ccc(OC)cc2)cc(C(F)(F)F)n1 | -2% | -9%
Fc1cccc(-c2csc(-c3ccsc3)n2)c1 | -4% | 164%[activator]
COc1cc(/C=C/c2nc(C#N)c(NCCc3ccccc3)o2)cc(OC)c1OC | 89%[activator] | 42%[activator]
CNC(=O)CSc1nnc(NC(=O)Nc2ccccc2)s1 | 7% | 60%[activator]
Cc1ccc(/C=C(/SCC(=O)O)c2nc3ccccc3s2)cc1C | 63%[activator] | 22%
O=C(c1cc(S(=O)(=O)NC2CC2)c(Cl)cc1Cl)N1CCN(c2ccccc2O)CC1 | 113%[activator] | 14%
CCOC(=O)C1CCCN(C(=O)Cn2nc3cc(C)nc(N4CCc5ccccc5C4)n3c2=O)C1 (stereo not given) | -12% | -10%
COCCNC(=S)N(C)[C@H]1C[C@H]2c3[nH]c4c(-c5ccc6c(c5)OCO6)cccc4c3CCN2C[C@H]1[C@H](C)O | -8% | -10%
CCOc1ccc(OCC)c(NS(=O)(=O)c2c(C(=O)N3CCCCCC3)c(C)n(C)c2C)c1 | 48%[activator] | 10%
O=C(NCCc1cccc(Cl)c1)NC1CC1 | -14% | 57%[activator]
CCOC(=O)c1cccc(NC(=O)Cn2ncc3c4ccccc4n(Cc4ccccc4)c3c2=O)c1 | -11% | -10%
COc1ccc(N2CCN(C(=O)c3cnc(N4CCCC4)nc3C)CC2)cc1 | 8% | -13%
COc1cccc(C(=O)Nc2ccccc2SCc2cc(=O)c3cccc(C)c3[nH]2)c1 | 33%[activator] | -16%
CCOCCCNS(=O)(=O)c1ccc(NC(=O)c2ccc3c(c2)OCO3)cc1 | 80%[activator] | 10%
CSc1ccc(/C=C2\N=C(c3ccco3)OC2=O)cc1 | -6% | 3%
